VACV mCherry inh: inhibitors of vaccinia virus infection (mCherry reporter signal). Vaccinia virus mCherry reporter infection, fluorescence; about a quarter of the inactives have no number. actives 0.63% (n = 310,000). AID 720579. Potency, µM (highest dose often 36.5 µM), inactives show top-dose activity change, negative = inhibition, hits mostly inhibitors; active = well fitted inhibition curve with a large enough effect; inconclusive = small, poorly fitted or top-dose-only effect; inactive = no such curve, though single readings can be large or run the other way; tested in A549 cells; also: nearly all actives have a fitted effect of over 35% in size; inactives centre near -10
Vaccinia Venus: vaccinia inhibition (Venus reporter); Vaccinia virus Venus reporter expression, fluorescence; Potency, µM (doses to about 36.5 µM), for inactives: top-dose activity change, negative = inhibition, hits mostly inhibitors; actives 0.46% (n = 330,000); AID 720580; active means well fitted inhibition curve with a large enough effect; inconclusive means small, poorly fitted or top-dose-only effect; inactive means no such curve, though single readings can be large or run the other way; tested in A549 cells; also: nearly all actives have a fitted effect of over 30% in size; inactives centre near -10
* = called active by the depositor; i = inactive; ? = inconclusive; / = no result given; & = joins results of further samples; [ ] = dose if it differs, or a comment. % is scaled to controls: 0 for no effect and ±100 for the full control effect; potency is read from the fitted curve at half-maximal effect.

canonical_smiles | VACV mCherry inh | Vaccinia Venus
CN1C(=O)C(C)(C)c2cc(S(=O)(=O)NCC(=O)NCc3ccccc3)ccc21 | i | -17%
O=C(O)c1ccccc1C(=O)Nc1ccc(S(=O)(=O)Nc2nccs2)cc1 | -13%&-10% | -11%&-4%
N#Cc1c(NC2CCCCC2)nc(-c2ccco2)c2c1CCCC2 | / | 0%
C=CCN1C(=O)c2ccc(C(=O)N(CC)CC(=O)Nc3ccc(OC)cc3)cc2C1=O | i | -7%
O=C(CCS(=O)(=O)c1cccc2nonc12)Nc1ccc(F)cc1F | -17% | -17%
CC(=O)N1CCCc2cc(S(=O)(=O)Nc3ccc(C)cc3C)ccc21 | -3% | -16%
CCOc1ccc(C(NC(=O)c2ccco2)c2ccc(OC)c(OC)c2)cc1 (stereo not drawn) | -9% | -10%
NC(=O)c1cccnc1Oc1ccccc1 | 5% | -7%
CCCCOc1ccc(C2=CSC3=NCCN23)cc1[N+](=O)[O-] | -10% | -10%
Cc1ccccc1-[n+]1c(-c2ccccc2)cc(-c2ccccc2)cc1-c1ccccc1 | -2% | ?
CCOC(=O)CN1NC2(CCCCC2)NC1=S | -12% | -4%
CNc1nc2c(c(=O)n(C)c(=O)n2C)n1CC(O)COc1ccc(OC)cc1 (stereo not drawn) | -21% | -17%
O=C1NN=C(CSc2n[nH]c(=S)s2)CS1 | -1% | -16%
CCCc1ccc(S(=O)(=O)N2CCC(c3nnc(-c4cccc(C)c4)o3)CC2)cc1 | -15% | -19%
Cn1nccc1NC(=O)Nc1cccc(Cl)c1Cl | i | -1%
COc1ccccc1N(CC(=O)NCc1ccccc1)S(C)(=O)=O | / | -8%
C[C@H](NC(=O)c1ccc(C(C)(C)C)cc1)C(=O)N1CCC2(CC1)NCCc1[nH]cnc12 | i | -18%
N=c1oc2ccc(Cl)cc2cc1C(=O)Nc1ccc(F)cc1 | -10% | 0%
COC(=O)c1cccc(Cn2nnc3sc4c(c3c2=O)CCC(C(C)(C)C)C4)c1 (stereo not drawn) | -10% | -4%
COc1cccc2c1OC[C@@H](CO)[C@H]2N(C)C(=O)Nc1ccc(Cl)cc1Cl | i | -18%
Cc1ccc(NC(=O)CSc2nc3c(c(=O)[nH]2)CCCC3)cc1C | i | -9%
COc1ccc(C(=O)N2CCCc3ccccc32)cc1Br | -1% | -8%
CC(=O)Oc1ccc(-c2ccc(C(=O)NCCc3ccc(S(N)(=O)=O)cc3)cc2)cc1 | 6% | 13%
O=C(Nc1nc2ccc(Oc3ccccc3)cc2s1)c1cc([N+](=O)[O-])ccc1N1CCOCC1 | -2% | -15%
O=C(CSc1nc2ccccc2[nH]1)NC(=O)NCc1ccco1 | i | -15%
Cc1cccc(NC(=O)CSc2nc(=O)n(CCCN3CCOCC3)c3c2CCCC3)c1 | -24% | -14%
COc1ccc(CCN(C)C(=S)NC(=O)c2ccc(F)cc2Cl)cc1OC | -6% | -8%
Cc1ccccc1-n1c(SCC(=O)N/N=C/c2c(C)nn(-c3ccccc3)c2C)nc2ccccc2c1=O | -27% | ?
O=C(NCC1=C(c2ccc3ccccc3c2)C[C@@H]2CC[C@H]1N2Cc1ccco1)c1ccc([N+](=O)[O-])cc1 | ? | ?
COc1cc(C)c(C)cc1S(=O)(=O)N1CCN(Cc2ccccc2)CC1 | -16% | -16%

The last five records of the section before open the next one.
canonical_smiles | VACV mCherry inh | Vaccinia Venus
Cc1cccc(NC(=O)CSc2nc(=O)n(CCCN3CCOCC3)c3c2CCCC3)c1 | -24% | -14%
COc1ccc(CCN(C)C(=S)NC(=O)c2ccc(F)cc2Cl)cc1OC | -6% | -8%
Cc1ccccc1-n1c(SCC(=O)N/N=C/c2c(C)nn(-c3ccccc3)c2C)nc2ccccc2c1=O | -27% | ?
O=C(NCC1=C(c2ccc3ccccc3c2)C[C@@H]2CC[C@H]1N2Cc1ccco1)c1ccc([N+](=O)[O-])cc1 | ? | ?
COc1cc(C)c(C)cc1S(=O)(=O)N1CCN(Cc2ccccc2)CC1 | -16% | -16%
Cn1c2c(c(=O)n(C)c1=O)C(c1ccc(O)cc1)Nc1ccccc1O2 (stereo not drawn) | -7% | 0%
N=C1CCCN1CC(=O)c1ccc(Cl)cc1 | -20% | -3%
CC(C)NC(=O)c1onc(CSc2ccc(Cl)cc2)c1C(=O)NC(C)C | -10% | -22%
CCOC(=O)C1=C(C)NC(SCC(N)=O)=C(C#N)C1c1ccncc1 (stereo not drawn) | -10%&-8% | -9%&-8%
Cc1ccc(C)n1NC(=O)c1cccs1 | / | -18%
Fc1c(F)c(F)c(N2CCNCC2)c(F)c1F | -5% | -15%
CCOCCn1c(COc2ccccc2)nc2ccccc21 | / | -7%
CN(Cc1cnccn1)Cc1ccccc1OCC(O)CN1CCc2ccccc2C1 (stereo not drawn) | -30% | -7%
NNc1nc2c(Cl)c(Cl)ccc2s1 | -18% | 2%
O=C(NNc1ccc([N+](=O)[O-])cc1[N+](=O)[O-])c1ccco1 | ? | -23%
Cc1cc(O)c(Sc2ccc(Cl)cc2)c(=O)[nH]1 | -2% | -4%
CCCOc1ccc(N2C(=O)CC(N3CCOCC3)C2=O)cc1 (stereo not drawn) | i | 2%
CCOC(=O)N1CCN(C(=O)COC(=O)c2oc3ccc(OC)cc3c2C)CC1 | -16% | -1%
O=c1cc(-c2cccc([N+](=O)[O-])c2)[nH][nH]1 | i | -6%
CCc1ccc(C(=O)Nc2ccc3nc(C)ccc3c2)cc1 | -4% | -22%
O=NN(CCCl)C(=O)NCCCl | -12%&-4% | -8%&-6%
CCOC(=O)N(C)c1c(CC)nc2c(OCCC3CCCCC3)cccn12 | 9% | -12%
Cc1c(CCC(=O)O)c(=O)oc2cc3occ(-c4ccc(Cl)cc4)c3cc12 | -31% | -6%
CC(Oc1ccccc1F)c1nnc(SCC(=O)Nc2ccc(N3CCOCC3)cc2)o1 (stereo not drawn) | -13% | -5%
CN(C)CCCNc1oc(-c2ccccc2Cl)nc1S(=O)(=O)c1ccc(F)cc1 | -11% | -23%
O=S(=O)(NCCc1ccccc1)c1ccc(Br)cc1 | i | -11%
Nn1c(Cc2cccc3ccccc23)nnc1SCc1c(F)cccc1Cl | -28% | -21%
CC(=O)Nc1ccc2c(c1)CN(c1cc(C)ccc1C)CO2 | -19% | -10%
O=C(CSc1ccc2nnc(-c3cccnc3)n2n1)Nc1ccccc1F | -4% | -14%
CCCCCc1ccc(CC(=O)O)cc1 | -9% | 0%
COc1cccc(/C=N/Nc2nnc3c(n2)[nH]c2ccccc23)c1OC | -12% | -7%
Cc1cc2nc(C(C)(C)C)cc(N)n2n1 | i | -9%
CC(C)C(C(=O)NCc1ccco1)N(C(=O)CNS(=O)(=O)c1ccccc1)C1CCCC1 (stereo not drawn) | / | -2%
CCOC(=O)N(C)S(=O)(=O)c1ccccc1[N+](=O)[O-] | i | -19%
COc1ccccc1CNC(=O)c1ccccc1OC | -22% | -18%
COC(=O)c1ccc2c(=O)n(CC3CCCO3)c(=S)[nH]c2c1 (stereo not drawn) | -19% | -9%
O=C(Cn1cnc2c(NC(=O)OCc3ccccc3)ncnc21)NCc1ccccn1 | i | -13%
COc1cc(C(c2sc3nc(C)nn3c2O)N2CCN(c3ccccc3)CC2)cc(OC)c1OC (stereo not drawn) | -14% | 1%
CN1CCCN(c2cc(-c3ccc4ccccc4c3)nc3ccnn23)CC1 | 8% | 43%[activator]
Nc1nc(C(F)(F)F)cc(=O)n1N | -5% | -9%
O=C(N/N=C/c1c(O)n(Cc2ccccc2)c(=O)[nH]c1=O)c1ccccc1O | 36%[activator] | 15%
Cc1cccc([C@@H]2[C@@H]3C(=O)N(Cc4ccccc4)C(=O)[C@@H]3[C@]3(Cc4ccccc4)C(=O)N(c4cccc(Cl)c4)C(=O)N23)c1 | ? | -2%
CC(=O)Nc1c2c(nn1-c1ccc(C)cc1C)CSC2 | -1% | -12%
Cc1ccc2c(=O)cc(C(=O)Nc3ccc(S(=O)(=O)Nc4onc(C)c4C)cc3)oc2c1 | -7% | -1%
O=C(O)c1cccc(NC(=O)c2cccc(NC(=O)C3CCCO3)c2)c1 (stereo not drawn) | -12% | -5%
CC1CC1C(=O)OCC(=O)NC(=O)NC12CC3CC(CC(C3)C1)C2 (stereo not drawn) | i | -14%
CCN1CCN(CC(=O)Nc2ccc(S(=O)(=O)N3C(C)CCCC3C)cc2)CC1 (stereo not drawn) | -2% | -8%
COc1ccc(OC)c(NC(=O)CSc2ccnc(=O)[nH]2)c1 | 2% | 2%
Cc1noc(C)c1C(=O)OCC(=O)NCCc1ccc(S(N)(=O)=O)cc1 | -14% | -10%
CC(C)=CCc1c(O)ccc(C2COc3c(CC=C(C)C)c(O)cc(O)c3C2=O)c1O (stereo not drawn) | 8% | -15%
O=C(NC1(C(F)(F)F)N=C(c2ccccc2)N(C2CCCCC2)C1=O)c1ccc(F)cc1 (stereo not drawn) | 0% | -8%
O=C(c1ccco1)N(CCC(c1ccccc1)c1ccco1)Cc1ccco1 (stereo not drawn) | -12% | -2%
CN(Cc1ccccc1)c1ccc2nnc(-c3ccccc3)n2n1 | -7% | -13%
Cn1nnc(C(O)CNCc2ccc(Cl)cc2)n1 (stereo not drawn) | -4% | -18%
CCCCCC(=O)NNC1CC(=O)N(c2ccccc2)C1=O (stereo not drawn) | -4% | 10%
O=C(c1ccc(NS(=O)(=O)/C=C/c2ccccc2)cc1)N1CCCCC1 | -8% | -25%
COCc1ccc(C(=O)N2CCCC(CCC(=O)NCc3ccccc3F)C2)o1 (stereo not drawn) | -12% | -20%
CSc1ccc(-c2nnc(NC(=O)c3ccc4c(c3)OCCO4)o2)cc1 | -14%[7.34 µM] | -2%[7.34 µM]
CCC(Cc1ccccc1)NC(=O)c1oc(=O)c2ccccc2c1-c1ccccc1 (stereo not drawn) | -12% | -8%
COc1ccc(CNCCS(=O)(=O)NC2CCCC2)cc1 | -16% | -10%
COc1ccc(-c2cn3nc(N4CCC(C(=O)Nc5cccc(OC)c5)CC4)sc3n2)cc1 | -12% | -14%
Cc1ccc(C(=O)NNC(=O)CCC(=O)Nc2cccc(Cl)c2C)cc1 | -22% | -21%
O=C1NCC(COCc2ccco2)O1 (stereo not drawn) | i | 0%
Cc1csc2nc(CNS(=O)(=O)N(C)C)cn12 | -15% | 1%
Cc1ccc(C)c(N2CCN(C(=O)CCc3nc(-c4ccccc4F)no3)CC2)c1 | -25% | -7%

Another view of part of the listing above:
Values run as follows: VACV mCherry inh	Vaccinia Venus
- COc1ccc(-c2cn3nc(N4CCC(C(=O)Nc5cccc(OC)c5)CC4)sc3n2)cc1
    -12%	-14%
- Cc1ccc(C(=O)NNC(=O)CCC(=O)Nc2cccc(Cl)c2C)cc1
    -22%	-21%

Further structures.
canonical_smiles | VACV mCherry inh | Vaccinia Venus
CCCC(=O)Nc1ccc2c(c1)nc(CN1CCCC1)n2C | / | -6%
O=C(CSc1nnc(CCCN2C(=O)c3cccc4cccc(c34)C2=O)n1-c1ccccc1)N1CCCCC1 | i | -16%
O=C(Nc1ccc([N+](=O)[O-])cc1)C(c1ccccc1)c1ccccc1 | -1% | -8%
O=S(=O)(O)c1ccc2c(c1)C(C(Cl)(Cl)Cl)OC(C(Cl)(Cl)Cl)O2 (stereo not drawn) | -9% | 1%
Cc1cc(C)c(S(=O)(=O)Cc2ccccc2)c(Cl)n1 | -21% | -16%
COc1cc(NC(=O)CSc2nccc(C)n2)c(C)cc1[N+](=O)[O-] | -14% | -2%
CN(CC(=O)Nc1c(Cl)cccc1Cl)C(=O)CNC(=O)c1ccco1 | -6% | -5%
CC(=O)NS(=O)(=O)c1ccc(NC(=O)c2cc3c(=O)n4ccccc4nc3s2)cc1 | i | -11%
O=C(Nc1ccc(Cl)cc1)N1CCCC(Cn2cccc2)C1 (stereo not drawn) | -21%[7.34 µM] | -11%[7.34 µM]
O=C(NN1CCOCC1)c1ccc(Cl)cc1 | -10% | -11%
O=C(CCC(=O)Nc1ccc(F)cc1)N/N=C/c1c[nH]c2ccccc12 | -20% | -20%
Cc1ccccc1OCC(=O)NCCCNC(=O)c1ccco1 | -7% | -5%
COc1ccc(C(Nc2cc(C)ccn2)c2ccc3ccc(C)nc3c2O)cc1 (stereo not drawn) | -12% | -4%
O=C1C2C3C=CC(C4CC34)C2C(=O)N1CCCCN1CCN(c2ccc(F)cc2)CC1 (stereo not drawn) | -23% | -13%
CCOC(=O)c1c(N2C(=O)C3CC(C)=C(C)CC3C2=O)sc(C)c1C (stereo not drawn) | i | -18%
COc1ccc(C)cc1NS(=O)(=O)c1ccccc1 | 0% | -8%
O=C(CC1SC(=NC2CCCCC2)NC1=O)Nc1ccccc1 (stereo not drawn) | -24% | -7%
CCC1CCCCN1C(=O)COC(=O)c1n[nH]c2ccccc12 (stereo not drawn) | / | -6%
Cc1cccc(-n2c(C)cc(/C=C3/C(=N)N4C(c5ccccc5)=CSC4=NC3=O)c2C)c1 | -11% | -4%
CCOC(=O)CSc1nnc(-c2c[nH]c3ccccc23)o1 | i | -8%
Fc1cccc(Cc2c(-c3ccco3)nc3c4ccccc4ccn23)c1 | 1% | 7%
CCOc1ccc(NC2c3ccccc3C(=O)N2Cc2ccc3c(c2)OCO3)cc1 (stereo not drawn) | -27% | -30%
COc1ccc2cnnc(SCC(=O)Nc3ccc(C(=O)O)cc3)c2c1OC | -15% | -12%

Compound activity deposited in PubChem by National Center for Advancing Translational Sciences (NCATS).
